Arbovirus anti – antivirals against arbovirus infection, primary screen, cell-based, full library, 10K replicate subset; arbovirus infection cell-based antiviral screen; inhibition, % at 10 µM; 0.37% of 200,000 active; AID 1251, 2008;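 active means inhibition from about 30%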;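 further: bluetongue infection of BSR cells; cell survival read as ATP light after 72 h; 0% = infected wells without compound and 100% = uninfected wells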
Mtb growth – M. tuberculosis H37Rv growth inhibitors, H37Rv strain (AID 1626). M. tuberculosis H37Rv growth inhibition; higher % means a stronger effect. inhibition, % at 10 µM; hits with a dose series show IC50 in µM. 0.95% of 220,000 active;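 active means confirmed in a dose series; inconclusive means inhibition above 80% but not taken into the dose series; inactive means below 80% or under 30% at every dose of the series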;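 further: bacteria incubated seven days before Alamar blue readout; 0% = bacteria only wells and 100% = bacteria with antibiotic wells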
RecA splice inh – Mtb RecA intein splicing inhibitors, primary screen, biochemical, fluorescence, HTS; cell-free RecA intein splicing; inhibition, %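 (about 9 µM by stock and volumes)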; 0.75% of 290,000 active; AID 2221, 2009; in the data active means inhibition above about 30%; inconclusive means no clear call, values can overlap the other calls;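 further: 0% = vehicle wells and 100% = reference inhibitor control wells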
Target sequence (P9WHJ3 whole entry, looked up, canonical isoform): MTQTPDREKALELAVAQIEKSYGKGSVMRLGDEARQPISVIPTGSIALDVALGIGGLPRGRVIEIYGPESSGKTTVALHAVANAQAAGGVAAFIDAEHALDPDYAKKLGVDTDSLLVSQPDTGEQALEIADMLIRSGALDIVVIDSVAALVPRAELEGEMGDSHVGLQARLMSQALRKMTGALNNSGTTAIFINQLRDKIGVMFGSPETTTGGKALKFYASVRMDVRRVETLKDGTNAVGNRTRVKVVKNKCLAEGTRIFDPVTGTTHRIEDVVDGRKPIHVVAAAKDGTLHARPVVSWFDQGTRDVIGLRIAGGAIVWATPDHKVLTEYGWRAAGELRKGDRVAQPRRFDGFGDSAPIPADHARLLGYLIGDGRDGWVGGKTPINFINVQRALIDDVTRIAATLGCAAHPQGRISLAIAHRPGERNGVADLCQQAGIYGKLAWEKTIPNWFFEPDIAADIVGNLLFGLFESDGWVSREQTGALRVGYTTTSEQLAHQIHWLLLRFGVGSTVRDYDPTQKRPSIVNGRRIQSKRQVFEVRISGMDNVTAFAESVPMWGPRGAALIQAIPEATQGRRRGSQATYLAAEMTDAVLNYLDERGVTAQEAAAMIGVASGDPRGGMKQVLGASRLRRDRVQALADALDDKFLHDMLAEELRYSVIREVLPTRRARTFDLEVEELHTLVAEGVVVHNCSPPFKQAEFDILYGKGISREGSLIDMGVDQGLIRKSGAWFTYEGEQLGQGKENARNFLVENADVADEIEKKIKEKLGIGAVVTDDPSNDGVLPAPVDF
YopH inh – YopH tyrosine phosphatase inhibitors, primary screen, biochemical, fluorescence Ex485/Em525; YopH tyrosine phosphatase [Yersinia enterocolitica]; inhibition, %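 (about 10 µM by stock and volumes)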; 0.16% of 140,000 active;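 active means inhibition of 50% or more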;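 further: controls were vehicle for no effect and minimum signal wells for full effect; inactives centre near -20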
Mtb betalactam – beta-lactam sensitization of Mtb H37Rv, H37Rv | M. tuberculosis H37Rv growth with meropenem, percent inhibition; hits of this screen are not shown here | inhibition, % at 25 µM | 0.27% of 330,000 active | AID 434955, 2010;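 active means about 74% or more and at least 40 points above the plate without the antibiotic, then above 30% in a dose series; inconclusive means first-round hits that could not be retested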;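 further: growth measured after seven days incubation then overnight dye step; 0% = bacteria only wells and 100% = bacteria with antibiotic; twin plates without the antibiotic show which effects depend on it; some results filed as inactive read as strong as hits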
Arbovirus anti repeat – second read-out of Arbovirus anti, no call of its own (marks repeat the call); inhibition, %; measured here: 10K subset replicate screen; many hits read low in the repeat;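 first of two repeat runs on a subset; 0% = infected and 100% = uninfected wells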
* = called active by the depositor; ? = inconclusive; / = not tested or not shown.

SMILES | Arbovirus anti | Mtb growth | RecA splice inh | YopH inh | Mtb betalactam | others
Cc1cccc(CSCCNC(=O)CN(c2cc(C)cc(C)c2)S(C)(=O)=O)c1 | / | 0% | 0.6 | / | -8
COC(=O)C1=C(c2ccccc2)C[C@@H]2CC[C@H]1N2C(=O)N1CCCCC1 | / | -7% | -0.9 | / | 0
Cc1cc(NC(=O)C(=O)c2c(C)[nH]c3ccccc23)no1 | -3 | -10% | 1.7 | / | -13
COc1cc(NS(=O)(=O)c2ccc(N)cc2)ncn1 | 5 | 6µM* | 0.0 | / | 96
CCOn1c(-n2nc(C)cc2C)nc2ccccc2c1=O | 6 | 3% | -3.1 | 7 | -6
COc1ccc(NC(=O)CC2(CC(=O)O)CCCC2)cc1 | / | / | -2.7 | / | 3
Cc1onc(-c2c(F)cccc2Cl)c1C(=O)N1CCN(S(C)(=O)=O)CC1 | 2 | 0% | 6.9 | -27 | -8
O=C(O)C1CCCN1S(=O)(=O)c1ccc(F)cc1 (stereo not drawn) | / | / | -1.3 | / | -8
COc1cc(C(C)=O)ccc1OCC(=O)OCCCOC(=O)COc1ccc(C(C)=O)cc1OC | / | / | -0.8 | / | -18
CC(C)CN1CCC(C(=O)N2CCN(c3ccccc3F)CC2)CC1 | -3 | -1% | 0.8 | -27 | -10
CC(C)=N/N=C1\NC(=O)C(C)S1 (stereo not drawn) | / | -13% | / | / | 65
Cc1ccc(-c2cc(C(=O)NCc3ccco3)c3ccccc3n2)o1 | 4 | 9% | -16 | -31 | -3
O=c1[nH]c2c(s1)C(c1ccc(O)cc1)C1C3CCC(C3)C1S2 (stereo not drawn) | 5 | 7% | 4.6 | -7 | -2
CN(CC(=O)Nc1cccc(F)c1)C(=O)c1ccc(C2SCCS2)cc1 | / | / | -0.3 | / | 0
Cc1ccc(-c2c(C#N)c(N)n(-c3ccc(C)cc3)c(=O)c2C#N)cc1 | -6 | 2% | -3.2 | -9 | -13

The final 7 records of the section above come first, to join the parts:
SMILES | Arbovirus anti | Mtb growth | RecA splice inh | YopH inh | Mtb betalactam | others
COc1cc(C(C)=O)ccc1OCC(=O)OCCCOC(=O)COc1ccc(C(C)=O)cc1OC | / | / | -0.8 | / | -18
CC(C)CN1CCC(C(=O)N2CCN(c3ccccc3F)CC2)CC1 | -3 | -1% | 0.8 | -27 | -10
CC(C)=N/N=C1\NC(=O)C(C)S1 (stereo not drawn) | / | -13% | / | / | 65
Cc1ccc(-c2cc(C(=O)NCc3ccco3)c3ccccc3n2)o1 | 4 | 9% | -16 | -31 | -3
O=c1[nH]c2c(s1)C(c1ccc(O)cc1)C1C3CCC(C3)C1S2 (stereo not drawn) | 5 | 7% | 4.6 | -7 | -2
CN(CC(=O)Nc1cccc(F)c1)C(=O)c1ccc(C2SCCS2)cc1 | / | / | -0.3 | / | 0
Cc1ccc(-c2c(C#N)c(N)n(-c3ccc(C)cc3)c(=O)c2C#N)cc1 | -6 | 2% | -3.2 | -9 | -13
N=C1/C(=C\c2ccc(-c3cccc(Cl)c3)o2)C(=O)N=C2SC=C(c3ccccc3)N12 | 6 | 11% | 11 | 16 | 69
c1ccc2c(c1)Sc1ccccc1N2CC1CN2CCC1CC2 (stereo not drawn) | / | 11% | -0.6 | / | 9
COc1ccccc1CNC(=O)CCSCc1cccc(Cl)c1 | 7 | -2% | 7.3 | -16 | -6
COC(=O)C(Cc1ccccc1)NC(=O)CSc1nc(C)cc(=O)[nH]1 (stereo not drawn) | 4 | 3% | 0.1 | -57 | 3 | Arbovirus anti repeat=-2
COc1ccc(N2CCN(C(=O)CCc3ccc(S(=O)(=O)NC(C)C)cc3)CC2)cc1 | 2 | -6% | -1.6 | -4 | 4
Cc1ccc(S(=O)(=O)N2CCCC2)cc1C(=O)N1CCC(C)CC1 | / | / | 0.3 | / | 2
C/C=C\C=C\C(=O)N1CC2(CC(c3cccc(NC(=O)COc4ccc(Cl)cc4)c3)=NO2)C[C@H]1C(N)=O (stereo partly drawn) | / | 1% | 4.5 | / | 5
COc1ccc(C(CNC(=O)c2ccc(S(=O)(=O)N3CCOCC3)cc2)N2CCCCC2)cc1 (stereo not drawn) | -6 | 1% | -5.7 | -32 | -2
Cn1nnnc1SCCNCc1ccccc1OCc1ccccc1Cl | -2 | -4% | 1.3 | / | -5
Cc1ccc(NC(=O)c2cccc(S(C)(=O)=O)c2)cc1 | 13 | 4% | -0.2 | / | -6
CC(=O)c1ccc(Nc2nc3ccc(C)cc3n3cnnc23)cc1 | / | / | 4.1 | / | 10
CCOC(=O)N1CCN(Cc2nc(N)nc(Nc3ccccc3C)n2)CC1 | 4 | -3% | 2.8 | 19 | -10
CSCCC(NC(=O)COc1ccccc1)C(=O)N(C)CC(=O)Nc1c(C)cccc1C (stereo not drawn) | / | / | -5.2 | / | -5
COc1ccc(C(=O)NNC(=S)NC(=O)c2cccs2)cc1 | / | / | 9.4 | / | 92
CCOC(=O)C(NC(C)=O)(OCc1ccccc1)C(F)(F)F (stereo not drawn) | 0 | -5% | 1.8 | -16 | 2
Cc1cc(C)nc(NN2C(=O)/C(=C/c3ccc(O)cc3)SC2=S)n1 | -5 | 8% | 1.4 | -39 | 66
CC1CCN(C(=O)CN2C(=O)C(C)(C)Oc3ccc(C(=O)NC(C)C)cc32)CC1 | / | / | -1.1 | / | 2
O=C(CC12CC3CC(CC(Br)(C3)C1)C2)OCCN1CCCCC1 | 7 | -1% | 0.4 | / | -3
CCOc1cc(/C=C(\C#N)C(=O)Nc2ccc(S(N)(=O)=O)cc2)ccc1OCCN1CCOCC1 | / | / | 0.0 | / | -11
CCOC(=O)Cc1csc(N)n1 | -3 | -2% | -2.5 | 2 | 0
COc1cccc(NS(=O)(=O)c2ccc3[nH]cc(C(=O)NC4CC4)c(=O)c3c2)c1 | 9 | 6% | 2.6 | -30 | /
O=C1CC(c2ccco2)CC2=C1C(c1ccccc1)n1nc(C(F)(F)F)nc1N2 (stereo not drawn) | 7 | 2% | -7.6 | -29 | -2
C=C1C(C(=O)Nc2ccc(F)cc2)C1C(=O)Nc1ccc(F)cc1 (stereo not drawn) | -10 | 7% | / | / | 0
O=C(CSc1nccc2ccccc12)N1CCN(Cc2ccc3c(c2)OCO3)CC1 | / | / | 8.4 | / | 4
COCCCNS(=O)(=O)c1ccc2[nH]c(=O)[nH]c2c1 | / | 2% | -2.6 | / | -6
COc1ccccc1C(=O)Nc1ccnn1C1CCN(C(=O)C(C)(C)C)CC1 | / | / | 2.8 | / | 5
CCOc1ccc(N2CC(C(=O)OCC(=O)c3ccc(OC)cc3)CC2=O)cc1 (stereo not drawn) | / | / | 1.3 | / | 44
CNC(=O)COc1coc(CN2CCN(c3cccc(Cl)c3)CC2)cc1=O | / | / | -2.5 | / | -8
O=C(CSc1nnc(CNc2ccccc2)o1)N1CCc2ccccc21 | -6 | -11% | -0.4 | -34 | -2
CCOC(=O)/C=C1\CN(Cc2ccc(OC)cc2)S(=O)(=O)c2ccccc21 | / | / | 5.1 | / | -3
Cc1ccccc1S(=O)(=O)Nc1ncc(C(F)(F)F)cc1Cl | 20 | 5% | 5.5 | / | -2
CC(C)Nc1nc(NC(C)C)nc(OCCOC(=O)c2ccccc2)n1 | 5 | 4% | 4.2 | -21 | 0
Cn1c(SC/C=C/c2ccccc2)nnc1-c1cccs1 | -13 | 1% | 2.4 | -12 | -3
Nc1ncc(Br)cc1N=Cc1ccccc1 | -4 | 3% | -10 | -24 | -8
O=C(NC1CCCc2ccccc21)c1cc(F)cc(F)c1 (stereo not drawn) | / | / | 3.5 | / | 12
COC(=O)c1ccc(NC(=S)NCc2ccco2)cc1 | 6 | -11% | 1.1 | / | -4
CC1=C(C(N)=O)C(c2cccs2)n2nc(-c3cccc(C)c3)nc2N1 (stereo not drawn) | 3 | -6% | -0.8 | -40 | 5
COc1ccc(CNC(=O)Cn2nc(C)n3cccc3c2=O)cc1 | / | / | 0.2 | / | -11
CN1CCc2c(sc(/N=C/c3cccs3)c2C(N)=O)C1 | 10 | -3% | -33 | -29 | 91
O=C(COC(=O)/C=C/c1cn(-c2ccccc2)nc1-c1cccnc1)Nc1ccc(Cl)cc1Cl | -9 | 4% | 1.1 | -7 | 8
CC1(C)CC(=O)c2cnc3nc4ccccc4n3c2C1 | 0 | 3% | -0.7 | / | -4
C=CCn1c(SCC(=O)NCc2ccc3c(c2)OCO3)nnc1-c1cccnc1 | 4 | 1% | -0.3 | / | 5
COc1ccc(/C=C/C(=O)NC(=S)NNC(=O)c2c(-c3ccccc3)noc2C)cc1 | -17 | -1% | 2.6 | -24 | 3
CCC1CCC(C(=O)NC(C(=O)NCCN2CCOCC2)C(C)C)CC1 (stereo not drawn) | / | / | 2.2 | / | -5
CC(C)CC(NC(=O)c1ccc(Cl)cc1)C(=O)OCC(=O)c1ccc2c(c1)NC(=O)CO2 (stereo not drawn) | -12 | -6% | -4.0 | -5 | -6

Ordered by molar mass (smallest number first): three of the compounds above.
SMILES | Arbovirus anti | Mtb growth | RecA splice inh | YopH inh | Mtb betalactam | others
COC(=O)c1ccc(NC(=S)NCc2ccco2)cc1 | 6 | -11% | 1.1 | / | -4
CC1=C(C(N)=O)C(c2cccs2)n2nc(-c3cccc(C)c3)nc2N1 (stereo not drawn) | 3 | -6% | -0.8 | -40 | 5
CC(C)Nc1nc(NC(C)C)nc(OCCOC(=O)c2ccccc2)n1 | 5 | 4% | 4.2 | -21 | 0

Other compounds
SMILES | Arbovirus anti | Mtb growth | RecA splice inh | YopH inh | Mtb betalactam | others
CC/C(O)=C1\C(=O)CC(C)(C)CC1=Nc1ccccc1C | 2 | 6% | -0.5 | -29 | -2
Cc1ccc(NC(=O)COc2ccc(-c3nnco3)cc2)cc1S(=O)(=O)N1CCOCC1 | 3 | 4% | / | / | 0
CC(Sc1nc2scc(-c3ccccc3)c2c(=O)[nH]1)C(=O)NC(N)=O (stereo not drawn) | / | -7% | -0.1 | / | -3
CC1(C)Cc2cccc(Oc3cc(NN4CCCCC4)c([N+](=O)[O-])cc3[N+](=O)[O-])c2O1 | / | / | 8.5 | / | -2
CCCCCCNC(=O)c1ncn[nH]1 | / | 2% | 1.5 | / | -6
C(=N/Nc1nc(-c2ccccc2)cc(-c2ccccc2)n1)/c1cccnc1 | 3 | 77% | 0.4 | -3 | 48
Cc1cc(C)nc(NC(=O)Cc2ccc([N+](=O)[O-])cc2)c1 | -6 | 6% | 1.3 | 13 | -5
CCOC(=O)C(C)Sc1ncnc2nc[nH]c12 (stereo not drawn) | -3 | -7% | 0.1 | -22 | 3 | Arbovirus anti repeat=-1
Cc1nc(Oc2ccccc2)c2ccsc2n1 | 8 | -1% | 2.2 | / | -9
CC1=C(C(=O)OC(C)C)C(c2ccsc2)NC(=O)N1C (stereo not drawn) | -2 | -10% | 0.2 | 32 | -4
CCOc1ccccc1NS(=O)(=O)c1ccc(-n2cccn2)cc1 | / | / | 2.2 | / | -5
CCOc1cccc(-n2nnnc2-c2ccc(OC)cc2)c1 | -11 | 11% | 3.5 | -2 | 5
COc1ccc(CCNC(=O)Oc2ccccc2)cc1OC | / | / | -1.4 | / | 2
COc1cc(NC(=O)C2CCCN(S(=O)(=O)c3ccc4c(c3)oc(=O)n4C)C2)cc(OC)c1 (stereo not drawn) | -2 | -3% | -0.2 | -33 | -4
O=C(/C=C/c1cccs1)N1CCN(c2ccccc2)CC1 | -2 | 3% | -2.6 | / | 1
C/C(=N\OCC(=O)Nc1ccc(OC(F)(F)F)cc1)c1ccc2c(c1)OCCO2 | 6 | 8% | 4.9 | -26 | 0
O=C(NCC1CCCN1S(=O)(=O)c1ccccc1)c1cccc(Cl)c1 (stereo not drawn) | / | / | 3.4 | / | -16
Cc1cccc(OCC(=O)N2CCN(C(=O)COc3ccc(Cl)cc3)CC2)c1 | / | / | -0.5 | / | -8
CCOc1cc(C(=O)Nc2nnc(S(=O)(=O)N3CCOCC3)s2)cc(OCC)c1OCC | / | / | -3.2 | / | 0
[N-]=[N+]=CC(=O)C(Cc1ccccc1)N1C(=O)c2ccccc2C1=O (stereo not drawn) | 2 | 7% | 2.6 | -34 | 5
CN(Cc1nccn1C)C(=O)CC1C(=O)NCCN1Cc1ccc(F)cc1Cl (stereo not drawn) | / | / | -0.5 | / | ?
Nc1nc(CN2CCN(c3ccccc3F)CC2)nc(Nc2ccccc2)n1 | 7 | 56% | -0.6 | -11 | 42
COc1ccc(CCNS(=O)(=O)c2ccc(OC)c(OC)c2)cc1OC | / | / | -0.7 | / | -8
COC(=O)C(=C/C=C/c1ccco1)C(=O)OC | / | -12% | -4.3 | / | -7
O=C(Cc1ccc(Cl)c(Cl)c1)NC1CCCCCC1 | / | / | 1.4 | / | 1
NCCCC[C@H](NC(=O)C1CCNCC1)c1nnc(CN)o1 | 1 | -20% | 0.1 | / | -6

Only part of the results is shown; the hit share may differ from the screen's.
